TRPV1 PAM – HTS Assay for Compounds that Act as Potentiators of the Vanilloid Receptor 1; TRPV1-expressing cells, Fluo-8 calcium influx, capsaicin EC20 potentiation; host cell line not named in the record; control for the full effect not named in the record; potentiation, % at 8.33 µM; 320,000 compounds, 0.02% hits; active means potentiation above 80%; inconclusive means 30% to 80%; inactive means below 30%; note: 0% is about no effect
Target sequence (Q8NER1 whole entry, looked up): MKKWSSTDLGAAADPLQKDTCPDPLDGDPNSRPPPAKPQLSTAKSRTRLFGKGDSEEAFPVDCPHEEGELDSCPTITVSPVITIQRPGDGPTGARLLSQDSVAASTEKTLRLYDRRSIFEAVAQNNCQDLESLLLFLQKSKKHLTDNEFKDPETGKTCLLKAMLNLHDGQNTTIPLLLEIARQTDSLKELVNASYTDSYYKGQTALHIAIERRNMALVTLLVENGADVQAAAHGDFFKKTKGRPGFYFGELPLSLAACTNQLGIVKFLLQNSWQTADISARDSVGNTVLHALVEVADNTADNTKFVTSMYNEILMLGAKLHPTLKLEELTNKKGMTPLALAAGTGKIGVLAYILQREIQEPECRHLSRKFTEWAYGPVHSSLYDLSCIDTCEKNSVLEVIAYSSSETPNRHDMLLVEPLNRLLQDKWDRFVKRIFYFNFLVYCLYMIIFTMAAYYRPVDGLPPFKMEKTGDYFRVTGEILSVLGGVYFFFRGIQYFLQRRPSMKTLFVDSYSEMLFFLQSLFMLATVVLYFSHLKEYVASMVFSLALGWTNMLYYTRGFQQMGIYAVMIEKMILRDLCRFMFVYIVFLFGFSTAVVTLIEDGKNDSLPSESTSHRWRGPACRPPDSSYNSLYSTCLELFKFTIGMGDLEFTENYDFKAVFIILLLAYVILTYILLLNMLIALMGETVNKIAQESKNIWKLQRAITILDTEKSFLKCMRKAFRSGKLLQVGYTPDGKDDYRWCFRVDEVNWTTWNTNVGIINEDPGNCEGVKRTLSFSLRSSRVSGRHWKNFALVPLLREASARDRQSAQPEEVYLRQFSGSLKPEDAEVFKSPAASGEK
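Fluo-8 calcium influx in TRPV1-expressing cells, kinetic read (ex 480/em 520 nm). Compound added and read 3 min for agonist activity, followed by capsaicin at EC20 final and 2 min further read for enhancement.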
PINK1 expr mod – A Quantitative High throughput Screen to Identify Chemical Modulators of PINK1 Expression. AID 624263, 2012. PINK1 immunofluorescence, high-content cytometry, 24 h. Potency, µM (titrated, usually from 76.6 µM), inactives show top-dose activation (PINK1 increase), hits mostly activators. 410,000 compounds, 0.2% hits; active = well fitted activation curve with a large enough effect; inconclusive = small, poorly fitted or top-dose-only effect; inactive = flat fitted curve, though single readings scatter; cell line not stated here;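 note: potency is the fitted concentration of half-maximal effect; % of control where 0% means no effect; nearly all actives have a fitted effect of over 65% in size; a mitochondrial uncoupler was the plate control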
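Stable cell line treated 24 h with compounds at 5 concentrations (CCCP controls), then fixed and immunostained for PINK1 plus nuclear and cell stains; PINK1 immunofluorescence quantified by laser-scanning microplate cytometry.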
TRPML1 blocker – qHTS for Inhibitors of the Human Mucolipin Transient Receptor Potential 1 (TRPML1); TRPML1-inducible cells, Ca2+ dye fluorescence, FDSS; stronger effect = lower value; inhibition of EC80 agonist-evoked calcium signal; Mucolipin-1 (Homo sapiens), Q9GZU1; activity change, negative = inhibition, % (no concentration beside the values); 390,000 compounds, 0.02% hits; in the data active means activity change below about -50%; inconclusive means about -30% to -50%; inactive means above about -30%;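 note: stimulus is agonist 54-4 at its EC80 concentration; % is set by controls: 0 for no effect and ±100 for the full control effect; compound concentration not given in the record; the text of the record puts the active cut at -80%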
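TRPML1-DL cells, Tet-induced overnight (~16 h, 37 °C) at 1,500 cells/well, were loaded with Ca8 no-wash dye plus quencher for 45-90 min at room temperature. Compounds were pinned during FDSS kinetic reading; agonist 54-4 at EC80 (4 uM final) then added.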
Menin-MLL FL inh – qHTS Assay for Inhibitors Targeting the Menin-MLL Interaction in MLL Related Leukemias: Competition With Fluorescein Labeled MLL-derived Peptide | 290,000 tested, under 10 active | AID 1766, 2009 | FP activity change, % at 61.4 µM | Fluorescence polarization, fluorescein-MLL peptide displacement from menin; inconclusive = falling polarisation curve, or a change in total fluorescence; inactive = total fluorescence flat and polarisation flat or rising; no compound was filed as active; the % refers to the polarisation; negative = inhibition;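 note: % of control where 0% means no effect; inhibitors lower the polarisation; unlabelled MLL peptide was the positive control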
TRPML1 agonist – qHTS for Agonists of the Human Mucolipin Transient Receptor Potential 1 (TRPML1) | TRPML1-expressing cells, Ca2+ dye fluorescence, FDSS; host cell line not named in the record; reference of the full effect not given here | Mucolipin-1 (Homo sapiens), Q9GZU1 | 410,000 compounds, 0.12% hits | activation, % (no concentration beside the values) | AID 624414, 2012; in the data active = activation above about 50%; inconclusive = about 30% to 50%; inactive = below about 30%; note: 0% is about no effect; the text of the record puts the active cut at 80%
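Calcium fluorescence on an FDSS kinetic reader gave the read-out. Tet-induced TRPML1-DL cells were plated overnight, dye-loaded (Ca8 with quencher, 45-90 min, room temperature, dark), then read 110 s after compound addition, and again 110 s after 4uM final 54-4 (EC80).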
Sfp inh – qHTS Assay for Inhibitors of Bacillus subtilis Sfp phosphopantetheinyl transferase (PPTase). 4'-phosphopantetheinyl transferase ffp (Bacillus subtilis), Q9F4F7. AID 1490, 2009. Biochemical Sfp PPTase activity, qHTS. 310,000 compounds, 3.5% hits. Potency, µM, without a hit: max response, negative = inhibition, actives largely listed as inhibitors; active = well fitted inhibition curve with a large enough effect; inconclusive = small, poorly fitted or top-dose-only effect, or another doubt; inactive = no such curve, though single readings can be large or run the other way;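 note: the enzyme is Sfp with the accession as filed and its product quenches rhodamine fluorescence; potency is the fitted concentration of half-maximal effect; 0% = enzyme reaction without inhibitor and -100% = no enzyme wells; top concentration of the series not given in the record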
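With Hepes-Na pH 7.6 buffer containing 10 mM MgCl2, Sfp (15 nM) modified BHQ-2-YbbR (12.5 uM) using rhodamine-CoA (5 uM). Two reads 30 minutes apart at 525/598 nm yielded each well's rate.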
ClpP mod – qHTS Assay for Activators of ClpP. ATP-dependent Clp protease proteolytic subunit (Bacillus subtilis (strain 168)), P80244. 340,000 compounds, 1.9% hits. Potency, µM (series often up to 57.5 µM), for the others: top-dose activity change, negative = active. AID 651965, 2013. purified B. subtilis ClpP, FRET peptide cleavage, 20 min; active = well fitted falling curve with a large enough effect; inconclusive = small, poorly fitted or top-dose-only effect; inactive = no such curve, though single readings can be large or run the other way; note: potency is the fitted concentration of half-maximal effect; the source files actives as falling curves though it sought activators and does not explain the sign; nearly all actives have a fitted effect of over 65% in size; many hits overshoot -100%
Target sequence (P80244 whole entry, looked up): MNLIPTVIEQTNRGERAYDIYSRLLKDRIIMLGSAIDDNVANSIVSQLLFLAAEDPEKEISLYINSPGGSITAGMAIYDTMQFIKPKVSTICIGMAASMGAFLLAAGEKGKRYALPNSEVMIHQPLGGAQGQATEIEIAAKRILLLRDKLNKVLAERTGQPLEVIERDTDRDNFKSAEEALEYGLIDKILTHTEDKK
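FRET quenching reversal measured ClpP activation: 10 microg/mL B. subtilis ClpP at pH 8 with the FRET-FV decapeptide, read at 430 nm after 320 nm excitation. The 20-min minus 0-min signal was scaled between DMSO/no-enzyme wells and ADEP (5.8 microM final).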
* hit, by the source's call; ? = inconclusive; . = no result given; & = joins results of further samples; [ ] = remark or other dose.

SMILES	TRPV1 PAM	PINK1 expr mod	TRPML1 blocker	Menin-MLL FL inh	TRPML1 agonist	Sfp inh	ClpP mod
CS(=O)(=O)N1CCc2cc(S(=O)(=O)NCc3ccccc3Cl)ccc21	.	0.1%	-13	.	2.3	.	-1.9%
CCOc1ccc(NC(=O)CN2C(=O)NC3(CCCCCC3)C2=O)cc1	.	1.6%	2	.	0.3	.	0.2%
CCOC(=O)c1sc(NC(=O)C2=COCCO2)c(C#N)c1C	1	0.7%	-3	.	-0.2	.	-0.6%
COc1cc(/C=C2/C(=N)N3C=CSC3=NC2=O)ccc1OCCCOc1c(C)cccc1C	-6	7.9%[38.3 µM]	58	17	3.4	?	9.6%
COc1ccccc1CN1CCC(CNS(=O)(=O)c2cc(-c3onc(C)c3C)ccc2OC)CC1	-20	-0.9%&7.4%	?	-6.7	0.2&0.0	-1%	-6.9%&-3.8%
COc1ccc(OC)c(CCNC(=O)Cn2nc(C)c3c(C)n(-c4ccccc4)nc3c2=O)c1	9	1.9%	10	-5.1	-0.6	-2%	-5.0%
CCN1C(=O)CC(N2CCC(c3nc4ccccc4[nH]3)CC2)C1=O (configuration not stated)	-7	0.3%	18	0.1	0.4	3%	.
O=C(NCCc1ccccc1)C1c2ccccc2C(=O)N1C1CC1 (configuration not stated)	9	0.3%	-8	-0.5	-0.8	19%	-1.4%
Cc1ncc(CO)c(/C=N/N=C/c2ccccc2O)c1O	2	-1.0%	-9	6.2	1.4	-11%	-4.7%
CCOc1ccccc1Nc1cc(C)nc2ccccc12	.	1.5%	-7	.	0.1	.	-2.8%
CC(=O)Nc1ccc(C(=O)COC(=O)c2cc(C)oc2C)c(F)c1	.	3.4%	1	.	0.0	.	-3.0%
CCOc1ccccc1OC(=O)CN1C(=O)c2ccccc2C1=O	-3	5.9%	9	-6.4	2.1	-6%	-2.5%
COc1cc2ncnc(NCc3ccc(F)cc3)c2cc1OC	-1	2.4%	6	-0.7	-1.1	0%	-11%
COc1ccc(C(=O)N2CCOC2CNC(=O)C(=O)NCc2ccco2)cc1 (configuration not stated)	-3	0.4%	25	2.9	0.3	11%	-5.7%
O=C(CCc1ccccc1)OCC(=O)c1ccc([N+](=O)[O-])cc1	-3	1.9%	-9	-1.4	1.2	7%	-2.1%
COc1ccc(C(CNC(=O)C(Cc2ccccc2)NC(N)=O)N(C)C)cc1 (configuration not stated)	-4	4.3%	13	3.8	3.9	7%	-1.4%
Cc1ccc([C@@H]2[C@@H]3C(=O)N(c4ccccc4)C(=O)[C@@H]3[C@]3(C)C(=O)N(Cc4ccccc4)CC(=O)N23)o1	-8	0.0%	-10	0.4	0.3	8%	-5.5%
COC(=O)Nc1ccc(S(=O)(=O)N2CCC(C(=O)N3CCC(C)CC3)CC2)cc1	0	-0.7%	4	-2.3	2.5	1%	.
COc1ccccc1NC(=O)C1=C(C)Nc2nc(-c3ccco3)nn2C1c1ccccc1F (configuration not stated)	.	0.5%	-10	.	-0.9	.	-5.0%
CN(C)c1ccc(C=C(c2nnnn2-c2ccccc2)c2nnnn2-c2ccccc2)cc1	3	2.6%	5	?	3.1	10%	-3.4%
Cc1ccc(CNC(=O)c2c(-c3ccc(Br)cc3)noc2C)o1	.	-0.1%	-6	.	-0.2	.	-0.4%
COC(=O)/C=c1\sc2n(c1=O)C(C)=CC(C)(C)N=2	15	4.1%	-11	1.1	-1.3	-24%	0.5%
COC(=O)c1ccc(Cl)c(NC(=O)Cc2ccccc2[N+](=O)[O-])c1	-11	?	-17	1.8	0.9	?	4.1%
Nc1cc(=O)[nH]c(SCC(=O)Nc2ccc([N+](=O)[O-])cc2)n1	24	4.1%	.	-0.5	.	-5%	-0.1%
O=C(CN1CCCCC1)N1CCN(C(=O)CN2CCCCC2)CC1	-8	.	.	-2.1	.	0%	.
CCOc1ccc(CCNC(=O)C2CCCN(S(=O)(=O)N3CCOCC3)C2)cc1OCC (configuration not stated)	-6	0.7%	-11	-7.6	2.5	13%	0.7%
CC(C)(C)CN1C(=O)C(=O)NC[C@H]1Cc1ccc(O)cc1	1	1.5%	1	4.5	0.0	14%	-5.7%
COc1cccc(CN2CCN(C(=O)c3cccs3)CC2)c1OC	14	0.6%	36	4.2	-0.4	10%	-15%
CCOC(=O)C1=C(C)OC(N)=C(C(=O)OCC)C1c1ccncc1 (configuration not stated)	-7	0.5%	12	-1.7	-1.2	-4%	-0.8%
CC(C)CNS(=O)(=O)c1ccc(C(=O)Nc2ccc3c(c2)OCO3)cc1	-9	0.5%	9	-0.4	1.8	13%	.
CCc1nc2nc(C)cc(Nc3cccc(C(F)(F)F)c3)n2n1	4	0.3%	5	1.8	0.1	9%	-2.5%
CCc1ccc(-c2nnn(CCC#N)n2)cc1	-6	-0.4%	-4	-0.4	-0.6	19%	.
O=C(CN1C(=O)NC2(CCOc3ccccc32)C1=O)Nc1cccc(Cl)c1 (configuration not stated)	-9	1.7%	-2	-4.1	0.6	10%	0.0%
CCOC(=O)C1CCN(C(=O)c2cc(CN3C(=O)c4ccccc4C3=O)ccc2OCC)CC1	-15	-3.5%	-14	.	1.7	.	.
Cc1ccc(C(=O)Nc2ccccc2C(=O)NCc2cccnc2)cc1	0	1.7%	33	.	1.3	-4%	-0.9%
Cc1ccc(Cl)cc1N1CCN(C(=O)Cn2nc(C)c3sc4ccccc4c3c2=O)CC1	.	-0.1%	9	.	0.5	.	-10%

Whole records as entered above.
`COc1cccc(CN2CCN(C(=O)c3cccs3)CC2)c1OC` as listed: TRPV1 PAM: 14; PINK1 expr mod: 0.6%; TRPML1 blocker: 36; Menin-MLL FL inh: 4.2; TRPML1 agonist: -0.4; Sfp inh: 10%; ClpP mod: -15%
`CC(C)CNS(=O)(=O)c1ccc(C(=O)Nc2ccc3c(c2)OCO3)cc1` as listed: TRPV1 PAM: -9; PINK1 expr mod: 0.5%; TRPML1 blocker: 9; Menin-MLL FL inh: -0.4; TRPML1 agonist: 1.8; Sfp inh: 13%; ClpP mod: .

(continued)
SMILES	TRPV1 PAM	PINK1 expr mod	TRPML1 blocker	Menin-MLL FL inh	TRPML1 agonist	Sfp inh	ClpP mod
COc1ccccc1C(CC(=O)Nc1ccc(Cl)cc1)c1ccc(OC(C)C)cc1 (configuration not stated)	8	15%	12	5.9	2.9	16%	-2.2%
O=C(Cc1ccccc1)N1CCc2[nH]nc(-c3ccccc3)c2C1	22	-0.1%	-7	-2.4	-1.8	5%	0.1%
Cc1ccc(S(=O)(=O)Nc2ccc(Nc3ccccc3)cc2)cc1	?	1.0%	4	0.0	0.0	-7%	.
Cc1ccccc1OCCCCn1cnc2ccccc21	-4	1.7%	-2	2.0	0.5	8%	-0.6%
COc1cccc(CNC(=O)CCNC(=O)N2CC(=O)Nc3ccccc32)c1	.	0.4%	-7	.	-0.6	.	0.0%
CCNc1cc(N2CCN(C3CCCCC3)CC2)c2noc3c2c1C(=O)c1ccccc1-3	.	-1.8%	6	.	-0.6	.	0.3%
C=CCC1CCCCC1=C(C#N)c1ccccc1 (configuration not stated)	.	1.5%	24	.	1.8	.	0.8%
Cc1nn(C)c2c1c(C(F)(F)F)cc(=O)n2CC(=O)NC(C)(C)C	.	2.9%	3	.	1.0	.	3.2%
O=C(Nc1cccc2c1CCCC2)c1ccccc1F	-4	-0.1%	-7	5.9	1.1	4%	3.8%
O=C(NCC(=O)N(c1ccc2c(c1)OCO2)C(C(=O)NC1CCCC1)c1cccs1)c1ccco1 (configuration not stated)	16	3.4%	7	2.7	-0.7	17%	-0.5%
COc1ccc(CCNC(=O)C2CCN(C(=O)c3ccccc3C)CC2)cc1	-12	1.3%	31	-5.6	1.4	16%	.
COc1ccc(OC)c(NC(=O)c2ccc(S(=O)(=O)N3CCOCC3)cc2)c1	5	3.4%	11	1.6	-1.3	-3%	-1.1%
c1ccc(N2CCN(c3nc4cc5c(cc4s3)OCO5)CC2)cc1	-3	6.9%&0.3%	11	-1.1	-0.6&-0.1	45µM*	-1.9%&1.0%
CC(=O)NC1=NN(C(C)=O)C(c2ccccc2)S1 (configuration not stated)	-7	0.0%	-9	2.4	1.7	6%	.
O=C(/C=C/c1ccc(F)cc1)c1ccc(N2CCOCC2)cc1	-13	16%	-13	1.9	1.3	8%	.
CC(C)(C)NC(=O)c1cc(C(C)(C)C)c(O)c(C(C)(C)C)c1	-26	11%	-6	-1.5	0.1	2%	-3.1%
CCC(C)NC(=O)CSc1nc2cc3c(cc2c(=O)n1CCCC(=O)NCCc1ccc(OC)c(OC)c1)OCO3 (configuration not stated)	.	0.7%	-20	.	1.7	.	-4.7%
O=C(OCc1ccccc1)C1=NNC2C(=O)N(c3ccccc3)C(=O)C12 (configuration not stated)	-1	0.5%	-1	7.7	-0.5	37%[activator]	22µM*
COc1ccc(N=c2sc3ccccc3n2C)cc1	14	5.2%[38.3 µM]	-2	-0.5	0.0	-11%	-1.7%
O=C(NCc1cccnc1)Nc1ccc(Cl)cc1	-9	0.0%	-12	.	0.0	16%	-2.1%
Cc1ccc(NC(=O)CSCc2ccco2)cc1	-11	-2.5%	52	2.8	-0.4	-2%	.
COc1ccc(/C=C/C(=O)OCC(=O)NC(C)CCc2ccccc2)cc1OC (configuration not stated)	.	1.0%	0	.	1.2	.	-26%
O=C(N/C(=C\c1cccs1)C(=O)N1CCOCC1)c1cccs1	-6	0.5%	16	-4.7	-0.1	5%	.
CN(CCCC(=O)O)c1ccc(N=Nc2ccc([N+](=O)[O-])cc2)cc1	.	-1.2%	-6	.	0.2	.	-1.6%
O=C1C(=O)N(Cc2cccnc2)C(c2ccccn2)/C1=C(/O)c1ccccc1 (configuration not stated)	5	3.5%	5	0.5	-0.1	4%	1.0%
COc1ccc(C(=O)On2c(-c3ccc(Br)cc3)nc3ccccc3c2=O)cc1	-4	12%	22	-2.5	-0.5	-9%	.
